# TDP1 block: blocks human tyrosyl-DNA phosphodiesterase 1; Q9NUW8; recombinant TDP1, AlphaScreen DNA substrate cleavage; Potency, µM (highest dose often 130 µM), for inactives: at the top dose activity change, negative = inhibition, hits mostly inhibitors; 350,000 tested, 0.28% active; AID 485290; note: nearly all actives have a fitted effect of over 40% in size
# Target sequence (Q9NUW8 whole entry, looked up): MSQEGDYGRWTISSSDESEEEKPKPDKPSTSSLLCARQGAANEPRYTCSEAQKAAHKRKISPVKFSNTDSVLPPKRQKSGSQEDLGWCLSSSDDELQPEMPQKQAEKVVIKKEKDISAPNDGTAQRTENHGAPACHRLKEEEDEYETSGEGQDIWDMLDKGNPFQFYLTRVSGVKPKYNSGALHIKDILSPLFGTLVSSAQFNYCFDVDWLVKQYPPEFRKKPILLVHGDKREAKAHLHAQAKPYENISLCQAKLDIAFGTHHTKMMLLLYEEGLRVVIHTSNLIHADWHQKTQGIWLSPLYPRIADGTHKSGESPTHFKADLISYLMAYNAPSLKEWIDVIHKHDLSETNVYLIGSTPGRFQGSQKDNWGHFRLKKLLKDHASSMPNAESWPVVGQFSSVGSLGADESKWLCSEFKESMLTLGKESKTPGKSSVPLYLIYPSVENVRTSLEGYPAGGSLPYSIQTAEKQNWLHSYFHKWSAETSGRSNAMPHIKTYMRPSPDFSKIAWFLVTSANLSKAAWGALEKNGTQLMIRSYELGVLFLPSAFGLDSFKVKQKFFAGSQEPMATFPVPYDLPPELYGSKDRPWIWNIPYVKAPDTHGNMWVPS
#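 Recombinant human Tdp1 (E. coli-expressed, 1 nM final) preincubated with compounds 15 min at room temperature, then 5'-biotin/3'-phosphotyrosine-FITC DNA substrate (15 nM final) added for 5 min. AlphaScreen beads (10 ug/ml final) added 10 min; cleavage lowers signal.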
# N370S GC mod: inhibitors or activators of N370S glucocerebrosidase for Gaucher disease; P04062; N370S GC spleen homogenate, 4MU-glucoside fluorescence; Potency, µM (series often up to 59.4 µM), for inactives: at the highest dose activity change, negative = inhibition, usual class: inhibitors; 330,000 tested, 0.092% active; AID 2101;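 note: 0% = full enzyme activity and -100% = no enzyme basal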
# The depositor's hits bear a star; ? = inconclusive; · = no result given; & = joins results of further samples; [ ] = another dose, or the depositor's remark. Calls come from the whole dose curve; as a rule, active = well fitted curve in the direction sought with a large enough effect; inconclusive = small, poorly fitted or top-dose-only effect, or another doubt; inactive = no such curve, though single readings can be large; an effect the other way counts as inactive or inconclusive. Unless noted, % is set by controls: 0 for no effect and ±100 for the full control effect; potency is the fitted concentration of half-maximal effect. Some of the compounds tested; most or all hits stand in other tables.
# Values run as follows: TDP1 block | N370S GC mod
- COc1ccc(-c2nn(CCC(=O)O)cc2/C=N/NC(N)=S)cc1
→ 0% | -3%
- CCOC(=O)Nc1sc(C(=O)N(CC)CC)c(C)c1C(=O)OCC
→ 6% | 3%
- O=C(c1ccc(Cl)cc1)N(Cc1ccco1)C1CCS(=O)(=O)C1 (stereo unspecified)
→ · | -13%
- C#CCNC(=O)C1=C[C@H](c2csc3ccccc23)[C@@H](CCCO)[C@H](OCC)O1
→ 5% | -3%
- Cc1cc(C)nc(Nc2ccc(N3CCCC3)cc2)n1
→ 12% | -11%
- Cc1ccc(C(=O)Cn2nc(C(=O)O)c3ccccc3c2=O)cc1C
→ 0% | -20%
- COc1cc2cc(C(=O)Nc3ccc4c(c3)OCCO4)[nH]c2cc1OC
→ 7% | -12%
- COc1ccc(S(=O)(=O)N2CCCC(C(=O)Nc3cccnc3)C2)cc1Cl (stereo unspecified)
→ 2% | -14%
- Cc1cc(C)c(S(=O)(=O)N2CCOC2CNC(=O)C(=O)NCCc2ccc(S(N)(=O)=O)cc2)c(C)c1 (stereo unspecified)
→ · | 0%
- COc1ccc(CNC(=O)CN2C(=O)COc3ccc(S(=O)(=O)N4CCCCC4)cc32)cc1
→ 2%&0% | -2%
- O=C(CSCC(=O)Nc1cccc2ccccc12)Nc1cccc2ccccc12
→ 3% | 3%
- Cc1cc(NC(=O)COC(=O)c2cccc(S(=O)(=O)N(C)C3CCCCC3)c2)no1
→ -11% | 11%
- Cc1ccc(NC(=O)Cn2nc(-c3ccccc3)nc2-c2ccccc2)c(C)c1
→ 3% | 8%
- COc1ccc(C(=O)O)cc1S(=O)(=O)NCc1cccnc1
→ · | 2%
- CCOC(=O)c1cc2sc(C)cc2n1CC(=O)N1CCN(C(=O)c2ccco2)CC1
→ -1% | 12%
- N/C(=N\OC(=O)COc1cc(Cl)c(Cl)cc1Cl)c1ccccn1
→ 5% | 8%
- O=C(CN1CCN(c2ccccn2)CC1)Nc1cccc(S(=O)(=O)N2CCCC2)c1
→ 1% | 4%
- Cc1ccc2oc(C(=O)N3CCN(C)C[C@@H]3C(C)C)c(C)c2c1
→ · | 0%
- O=S(=O)(c1ccc2oc3ccc(S(=O)(=O)N4CCCCC4)cc3c2c1)N1CCCCC1
→ 2% | 6%
- CCN(CC)S(=O)(=O)c1ccc2nc(NC(=O)c3ccco3)sc2c1
→ 3% | -5%
- O=C(NCCOc1ccc(Cl)cc1)c1ccc2ccccc2n1
→ -4% | 20%
- CS(=O)(=O)c1ccc(C(=O)OCC(=O)N(CCc2ccccc2)Cc2ccccc2)cc1
→ · | -5%
- COc1cc(C(=O)Nc2ccccc2NC(=O)c2cc(OC)c(OC)c(OC)c2)cc(OC)c1OC
→ · | 7%
- O=C(C1CC1)N1CCCN(C(=O)C2CC2)CC1
→ 4% | -9%
- O=C(CSc1nnc(-c2cccs2)o1)N1CCCCC1
→ 2% | 3%
- Cc1csc2nc(COC(=O)CNC(=O)c3ccccc3)cc(=O)n12
→ 6% | ·
- Nn1c(SCC(=O)Nc2nccs2)nnc1-c1ccco1
→ 8% | 3%
- O=C(NNc1cc(N2CCOCC2)nc(N2CCOCC2)n1)c1ccc(Cl)cc1Cl
→ 3% | 11%
- O=C(NNC(=O)c1ccccc1F)c1ccc2nc[nH]c2c1
→ -8% | -19%
- Brc1ccc(OCc2ccccc2)c(CNCc2ccncc2)c1
→ 7% | 0%
- CCCCOc1cccc(C(=O)Nc2ccc(S(=O)(=O)Nc3nnc(CC)s3)cc2)c1
→ 5% | 0%
- O=S(=O)(c1cccc2cccnc12)N1CCc2ccccc21
→ 6% | -3%
- Cc1ccc(-c2nc(CS(=O)CC(=O)NCc3ccccc3)c(C)o2)cc1 (stereo unspecified)
→ 5% | -18%
- O=C(CNC(=O)c1cccc(N2C(=O)c3ccccc3C2=O)c1)Nc1ccc(F)c(F)c1
→ 0% | ·
- CCCC(C)NC(=O)c1cc(C(=O)OC)cc([N+](=O)[O-])c1 (stereo unspecified)
→ 3% | 1%
- CC(=O)c1cccc(OCC(=O)OCC(=O)Nc2cc(S(=O)(=O)N3CCCCC3)ccc2C)c1
→ 0% | ·
- CCN1C(=O)[C@@H]2[C@@H](c3ccc(SC4CCCCC4)c(OC)c3)N3CCC[C@@]3(C(=O)OC)[C@@H]2C1=O
→ 1% | -4%
- O=C(OCC1OC(n2cnc3c(N(C(=O)c4ccccc4)C(=O)c4ccccc4)ncnc32)C(O)C1F)c1ccccc1 (stereo unspecified)
→ 6% | ?
- COc1ccc(NC(=O)CN(C)CC(=O)Nc2ccc(Cl)cc2F)cc1
→ 0% | -1%
- Oc1cccc(/C=N/NC(=S)NCCN2CCOCC2)c1O
→ 5% | -13%

# Looked up by compound from the entries so far, four records:
# Values run as follows: TDP1 block | N370S GC mod
- Brc1ccc(OCc2ccccc2)c(CNCc2ccncc2)c1
→ 7% | 0%
- CCCCOc1cccc(C(=O)Nc2ccc(S(=O)(=O)Nc3nnc(CC)s3)cc2)c1
→ 5% | 0%
- Cc1ccc(-c2nc(CS(=O)CC(=O)NCc3ccccc3)c(C)o2)cc1 (stereo unspecified)
→ 5% | -18%
- CC(=O)c1cccc(OCC(=O)OCC(=O)Nc2cc(S(=O)(=O)N3CCCCC3)ccc2C)c1
→ 0% | ·

# More entries follow:
# Values run as follows: TDP1 block | N370S GC mod
- COc1cccc(NC(=O)CN2C(=O)c3cccnc3Oc3ccc(Cl)cc32)c1
→ 6% | -5%
- N#Cc1sc2nc(-c3cccs3)cc(-c3ccc(F)cc3)c2c1N
→ -8% | 11%
- N#Cc1c(N)nc2c(c1-c1ccncc1)CCCCC2
→ 0% | 5%
- COn1c2c(c3c4nonc4ccc31)CCCC2
→ 3% | 7%
- O=C(NCc1ccc(Cl)cc1)C1CCN(C(=O)Cc2ccccc2)CC1
→ 4%[56.1 µM] | -2%
- CN(Cc1ccccc1)C(=O)c1ccccc1-c1ccccc1
→ 5% | 6%
- Cc1ccc(CN2C(=O)C3CCCN3c3ncccc32)cc1 (stereo unspecified)
→ · | -3%
- Cc1ccc(C2C=C(c3ccccc3)Nc3nc(NS(C)(=O)=O)nn32)cc1 (stereo unspecified)
→ 2% | ·
- Cc1ccc(C(=O)OC(C)CN2C(C)CCCC2C)cc1 (stereo unspecified)
→ · | -11%
- Cc1cc(C)cc(NC(=O)COc2coc(CN3CCc4ccccc4C3)cc2=O)c1
→ -3% | 0%
- O=C(c1ccc(OC(F)(F)F)cc1)c1ncc[nH]1
→ · | 5%
- CN(C)C(CNC(=O)c1cc(S(=O)(=O)N(C)c2ccc(F)cc2)ccc1Cl)c1ccco1 (stereo unspecified)
→ · | -4%
- Cc1c(N=c2scc(-c3ccccc3)n2C)c(=O)n(-c2ccccc2)n1C
→ 5% | -1%
- COc1ccc(C)cc1S(=O)(=O)N1CCCC(C(=O)N2CCOCC2)C1 (stereo unspecified)
→ 3% | -9%
- Cc1ccc(C(=O)NNC(=O)C(C)Sc2nc(N)cc(N)n2)cc1 (stereo unspecified)
→ 0% | 4%
- Cn1cnnc1SC/C(O)=C(\C#N)c1nc2ccccc2[nH]1
→ 5% | 0%
- COc1cccc(NS(=O)(=O)NC(=O)c2c(C)[nH]c3ccccc23)c1
→ 5% | -7%
- O=C(c1cc(-c2cccs2)on1)N1CCN(c2ccccc2)CC1
→ 6% | ?
- Cn1c(=O)[nH]c(=O)c2c1nc(CN1CCN(c3cccc(Cl)c3)CC1)n2CCc1ccccc1
→ 0% | -7%
- Cc1ccc(NC(=O)CSc2nnc(-c3cnccn3)n2-c2ccccc2)cc1
→ -5% | 22%
- CCCn1c(SCC(=O)c2[nH]c(C)c(C(C)=O)c2C)n[nH]c1=O
→ 0% | 0%
- Cc1cc2[nH]cnc2c([N+](=O)[O-])c1C
→ -3% | 1%
- COc1cccc(OC)c1C(=O)Nc1nc(COc2ccccc2)cs1
→ 5% | 19%
- Cc1ccc(OCC(=O)NNC(=O)c2ccoc2C)c(Br)c1
→ -3% | 2%
- COc1ccc(-c2cc(C3CCNCC3)[nH]n2)cc1
→ · | -2%
- O=C(COC(=O)c1c(Cl)ccc(Cl)c1Cl)NC(=O)NCc1ccccc1
→ 4% | 22%
- CC#CCN(Cc1ccco1)C(=O)c1ccc(OC2CCN(Cc3ccccn3)CC2)cc1
→ 8% | -10%
- CC[N+]1(C)CCC(=C2c3ccccc3CC(=O)c3sccc32)CC1 (stereo unspecified)
→ 4% | -1%
- CCc1ccccc1NC(=O)CN1CCN(C(=O)c2ccc(OCc3cn4ccccc4n3)cc2)CC1
→ -5% | -15%
- COc1ccc(N2C(=O)CCC(C(=O)NCc3ccccn3)C2c2ccc(F)cc2)cc1 (stereo unspecified)
→ 7% | -2%
- CC(=O)C1=C(O)C(=O)N(CO)C1c1ccccc1F (stereo unspecified)
→ -3% | -8%
- CC(=O)Nc1ccc(NC(=O)Cc2ccc(S(=O)(=O)N3CCCCC3)s2)cc1
→ 0% | -4%
- CCn1c(SCC(=O)NC2CC2)nnc1C(C)Oc1ccccc1 (stereo unspecified)
→ 2% | -4%
- CCOCCCNc1ncc2c(n1)CC(c1ccc(C)cc1)CC2=O (stereo unspecified)
→ 0% | -4%
- NC(=O)CSc1nnc(-c2cccc(S(=O)(=O)N3CCCCC3)c2)o1
→ -2% | -1%
- CCCCOC(=O)c1ccc(NC(c2ccc(C)cc2)P(=O)(OC)OC)cc1 (stereo unspecified)
→ 3% | 0%
- NS(=O)(=O)c1cccc(-n2cnnn2)c1
→ 0% | -3%
- O=[N+]([O-])c1nn(-c2ccccc2)n(O)c1=NCc1ccc2c(c1)OCO2
→ 7% | 5%
- COc1ccccc1-n1c(SCC(=O)N2CCCCC2)nnc1-c1ccccc1O
→ 4% | 13%
- COc1ccccc1NC(=O)Cc1noc(CSc2cccc[n+]2[O-])n1
→ 2% | -7%
- NC(=O)c1ccccc1NC(=O)COc1ccc(Cl)cc1
→ · | 11%
- Cc1cc(C)c2cc(CN(Cc3ccc4c(c3)OCO4)Cc3nnnn3Cc3ccco3)c(=O)[nH]c2c1
→ 7% | 22%
- COc1cc(CN2CCc3c([nH]c4ccccc34)C2)cc(OC)c1
→ · | 12%
- CCN(C(=O)Cn1c(=O)oc2ccccc21)c1cccc(C)c1
→ · | -15%
- CC1CC[C@@]2(OC1)O[C@H]1CC3[C@@H]4C[C@@H](O)[C@@]5(O)C[C@@H](O)[C@H](O)C[C@]5(C)[C@H]4CC[C@]3(C)[C@H]1[C@@H]2C (stereo partly specified)
→ · | -1%
- CCOC(=O)c1cnc(-c2ccccc2)nc1C(F)(F)F
→ 2% | 6%
- CCOC(=O)NC(=S)Nc1ccc(C(C)(C)C)cc1
→ · | 13%
- COc1ccccc1-n1cnnc1SCC(=O)c1c[nH]c2ccccc12
→ 2% | 11%
- COC(=O)c1ccccc1NC(=O)CSc1nc2c(c(=O)[nH]1)CCC2
→ 3% | 0%
- COc1ccc(-c2csc(NC(=O)CS(=O)(=O)c3ccc(F)cc3)n2)cc1OC
→ -4% | -7%
- O=C(Nc1nccs1)c1ccc(-c2ccc(F)cc2)o1
→ -1% | 8%
- N#Cc1cccc(NS(=O)(=O)c2ccc(S(=O)(=O)N3CCOCC3)cc2)c1
→ 3% | ·
- C=CCSc1nnc(Cn2c(=O)sc3ccccc32)n1C
→ -3% | 2%
- CCCCc1nc2sc3c(c2c(=O)n1NC(=O)c1ccco1)CC(C)(C)OC3
→ -5% | 6%
- Cn1c(CNC(=O)c2cccs2)n[nH]c1=S
→ -8% | -6%
- CCCCn1c(SCC(=O)Nc2cc(NC(=O)c3ccco3)ccc2C)nc2ccccc2c1=O
→ 5% | 8%
- CCCS(=O)(=O)c1c(S(=O)(=O)CCC)c2c(N)cccn2c1C(=O)c1ccccc1
→ 6% | 0%[12.8 µM]
- CN(C)S(=O)(=O)c1ccc(NC(=O)c2ccccn2)cc1
→ 1% | 11%
- CC(Oc1cccc2c1OC(C)(C)C2)C(=O)O (stereo unspecified)
→ 5% | -6%
- Cc1cc(NC(=O)CSCC(=O)Nc2ccccc2N2CCCCC2)no1
→ -10% | -10%

# (listing goes on)
# Values run as follows: TDP1 block | N370S GC mod
- O=Cc1ccc(-c2ccc([N+](=O)[O-])cc2Cl)o1
→ 2% | -2%
- O=C(Cc1c(O)c2ccccc2[nH]c1=O)NCc1ccc(F)cc1
→ -1% | -7%
- O=C(c1ncc[nH]1)c1ccccc1C(=O)N1CCOCC1
→ -5% | 8%
- CCOc1ccc(/C=C/C(=O)Nc2ccc(OC)cc2[N+](=O)[O-])cc1
→ -4% | -1%
- CN1CCc2nc3sc(C(=O)Nc4ccccc4OC(F)(F)F)c(N)c3cc2C1
→ -1% | ·
- CCN(CC)S(=O)(=O)c1ccc(/C(O)=C2/C(=O)C(=O)N(CCOC)C2c2ccccc2)cc1 (stereo unspecified)
→ 2% | 2%
- CCOC(=O)C1(C)/C(=N/Nc2ccc(Cl)cc2)C(=O)C(=O)N1c1ccccc1 (stereo unspecified)
→ 11% | 0%
- Cc1ccc(NC(=O)CN2CCC(NC(=O)c3ccccc3F)CC2)cc1C
→ · | 0%
- COCCC(=O)N1CCc2ccc(NC(=O)c3ccc(C(F)(F)F)cc3)cc2C1
→ · | 2%
- CCN1CCN(CCCNC(=O)c2cc3c(=O)[nH]c4ccccc4c3s2)CC1
→ -2% | -4%
- CCOCCCNCc1cc(Br)ccc1OCC
→ 0% | 17%
- CCn1cc(C(=O)NC(=S)Nc2sc3c(c2C(=O)OC)CCCCCC3)cn1
→ 0% | 3%
- CC(=O)c1cccc(Nc2nc3ccccc3n3cnnc23)c1
→ · | -1%

# Source: PubChem BioAssay (National Center for Advancing Translational Sciences (NCATS))
